RanGTP-Impb inh = disruptors of Ran-importin-beta complex formation – biochemical, FRET, CFP-Ran, YFP-importin-beta, homogeneous, primary screen. cell-free CFP-Ran/YFP-importin-beta FRET ratio. AID 2216. 300,000 tested, 1.1% active. inhibition, % (concentration not given with the values);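 active = most replicates above 15%; inconclusive = exactly half above 15%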;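 also: 0% = DMSO wells and 100% = Ran loaded with GDP instead of GTP; wells of about 40 µL received 100 nL stock; the first replicate is given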
Calb FLC = C. albicans growth modulation with fluconazole; AID 1979; C. albicans CaCi-2 (fluconazole-resistant clinical isolate) + fluconazole, Alamar Blue growth, 48 h; 300,000 tested, 0.57% active; growth inhibition, % (test concentration not listed);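 active = most replicates above 75%; inconclusive = exactly half above 75%; inactive = most below 75%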;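 also: all wells also contain fluconazole at 8 µg/ml as a sub-toxic cotreatment; 0% = median of DMSO wells and 100% = median of geldanamycin control wells; wells of about 8 µL received 7.5 nL stock; the first replicate is given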
T cruzi repl = T. cruzi replication inhibition. T. cruzi beta-gal in NIH3T3, luminescence, 90 h. inhibition, % (concentration not given with the values). 300,000 tested, 1.4% active. AID 1885;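 active = mean inhibition across valid replicates above about 55%, limit read from the data; inconclusive = mean below that limit but half or more replicates reach it; inactive = mean below it, under half of replicates reach it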;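 also: signal also drops with host cell toxicity which is not excluded here; 0% = plate median of DMSO wells and 100% = zero luminescence signal; higher percent means less beta-gal luminescence so fewer parasites; stock transfer was 50 nL into about 50 µL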
UCH37 DUB inh = human UCH37 deubiquitinating enzyme inhibition | purified proteasome/UCH37, Ub-AMC cleavage fluorescence | Q9Y5K5 | inhibition, % (test concentration not listed) | 330,000 tested, 0.33% active;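 active = mean of two replicates above 20%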;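 also: 0% = compound-free wells with enzyme and 100% = wells lacking proteasome; stock transfer was 100 nL into about 20 µL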
Target sequence (Q9Y5K5 whole entry, looked up): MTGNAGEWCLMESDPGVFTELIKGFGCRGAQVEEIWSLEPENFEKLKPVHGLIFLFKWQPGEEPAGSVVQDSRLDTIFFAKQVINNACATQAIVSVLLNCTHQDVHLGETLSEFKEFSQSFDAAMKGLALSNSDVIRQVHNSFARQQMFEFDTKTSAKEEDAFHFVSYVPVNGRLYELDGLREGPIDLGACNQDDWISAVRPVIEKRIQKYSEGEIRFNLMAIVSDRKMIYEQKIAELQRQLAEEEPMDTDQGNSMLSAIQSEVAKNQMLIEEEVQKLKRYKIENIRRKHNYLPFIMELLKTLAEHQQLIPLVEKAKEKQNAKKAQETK
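Assay system: Proteasome-bound UCH37. Buffer or medium: pH 7.4 Tris-HCl (50 mM) with ovalbumin, ATP-MgCl2, DTT. Incubation: 30 min preincubation with enzyme, 25 min cleavage at room temperature. Measured by: fluorescence, ex 355 nm, em 460 nm. Read-out basis: percent inhibition. Control set: wells without proteasome as full block, compound-free enzyme plus substrate as uninhibited.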
Beta apoptosis = blocks beta cell apoptosis; INS-1E cytokine-induced death, ATP luminescence, 48 h; percent of positive-control rescue, neutral wells zero; protection from apoptosis, % (concentration not given with the values); 300,000 tested, 0.8% active; AID 435005;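 active = all replicates at 75% or more, or half of them and the mean; inconclusive = half reach 75% but not the mean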;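 also: 0% = cytokine-treated negative control wells and 100% = positive control rescue; higher means more ATP so stronger rescue from cytokine killing; wells of about 40 µL received 100 nL stock; the first replicate is given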
A1 inh = inhibitors of the anti-apoptotic protein A1, read as caspase activation; MEF A1-2A-BIM cells, Caspase-Glo 3/7 luminescence, 3 h; percent of clofoctol response, vehicle zero; caspase activation, % (no concentration beside the values); 330,000 tested, 0.066% active;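 active = over half of replicate activation scores above 10%, or exactly half above 10 with the replicate mean above 10; inconclusive = replicate mean below 10 yet half the replicates above 10; inactive = over half of replicates below 10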;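 also: wells of about 30 µL received 50 nL stock; many hits fall short of the cut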
LANA-H2A inh = blocks KSHV LANA binding to histone H2A/H2B; inhibition, % (no concentration beside the values); cell-free LANA-H2A/H2B peptide, fluorescence polarization; 320,000 tested, 0.6% active; in the data active = inhibition mostly above about 10%, no sharp cut-off; inactive = mostly below about 6.7%;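 also: stock transfer was 7.5 nL into about 10 µL; 0% = median of vehicle wells and 100% = median of positive control wells; one replicate is shown; the record names a cut of 25% in any replicate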
Beta2AR agonist = human beta-2 adrenergic receptor agonism by FAP. Am2.2-beta2AR cells, FAP receptor internalization, flow cytometry; reference of the scale not given here. response, % (no concentration beside the values). 340,000 tested, 0.43% active;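 active = response above a set limit, near 3 SD of response in nonfluorescent compounds, cut at about 42% in these data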;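 also: stock transfer was 100 nL into about 11 µL; a reference agonist was the positive control; negative values mostly stem from fluorescent compounds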
Target sequence (P07550 whole entry, looked up): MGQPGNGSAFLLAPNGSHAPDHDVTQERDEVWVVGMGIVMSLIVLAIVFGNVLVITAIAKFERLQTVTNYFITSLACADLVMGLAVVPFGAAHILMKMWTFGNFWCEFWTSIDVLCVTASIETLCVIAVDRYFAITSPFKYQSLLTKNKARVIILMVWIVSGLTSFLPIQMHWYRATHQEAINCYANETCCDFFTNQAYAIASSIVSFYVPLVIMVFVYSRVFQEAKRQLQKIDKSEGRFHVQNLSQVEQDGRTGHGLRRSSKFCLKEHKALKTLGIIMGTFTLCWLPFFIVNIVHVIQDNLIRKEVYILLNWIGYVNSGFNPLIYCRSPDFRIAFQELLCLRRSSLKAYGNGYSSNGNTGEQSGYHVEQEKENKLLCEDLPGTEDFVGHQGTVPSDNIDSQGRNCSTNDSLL
An asterisk follows results filed as active; i = inactive; ? = inconclusive; · = no result given. Rows are unselected, and some 4.3% of all compounds hit somewhere here.

compound	RanGTP-Impb inh	Calb FLC	T cruzi repl	UCH37 DUB inh	Beta apoptosis	A1 inh	LANA-H2A inh	Beta2AR agonist
O=c1oc2ccccc2c(Nc2ccccc2)c1[N+](=O)[O-]	1.8	-4	-1	-0.6	-1	0.3	-8.4	-2
Clc1cccc(Cc2ccc(Cl)nn2)c1	1.2	?	12	2.9	-4	-0.4	1.2	3
O=C(NCC1CCCN1S(=O)(=O)c1cccs1)c1ccccc1 (stereo not given)	9.5	2	-11	-1.2	-3	0.1	0.1	-5
COC(=O)C1=C(C)N(CCCC(=O)O)C(=O)NC1c1ccccc1OS(=O)(=O)c1ccc([N+](=O)[O-])cc1 (stereo not given)	-4.3	1	-14	1.1	-1	2.2	6.5	7
COC(=O)c1cccc(N(CC(=O)NCC2CCCO2)C(=O)CCC(=O)Nc2cc(C)on2)c1 (stereo not given)	7.3	1	-6	0.5	-4	0.0	-2.4	1
CCc1nnc(NC(=O)c2nc(S(=O)(=O)Cc3ccccc3)ncc2Cl)s1	-1.1	-8	-9	·	-37	?	0.4	0
Cc1cccc(NC(=S)N2CCN(C(=O)c3ccco3)CC2)c1C	-2.1	-1	-11	·	1	0.2	2.0	0
CN1CCN(Cc2nc(N)nc(Nc3ccc4c(c3)OCCO4)n2)CC1	-1.6	-11	-5	4.6	·	-0.5	1.6	0
Cc1ccc(Cn2c(C)c3cnn(CC(=O)NC4CCCC4)c(=O)c3c2C)cc1	-7.0	1	1	2.0	-1	-0.1	-5.1	0
COc1ccccc1C1=NN(C(=O)c2ccccc2)C(c2ccc(Br)cc2)C1 (stereo not given)	?	7	23	1.1	-2	0.6	4.7	0
Nc1cccc2c(O)cccc12	0.4	-6	0	-41	16	0.8	4.1	11
COc1cc(/C(C)=N/NC(=O)Cc2c(C)[nH][nH]c2=O)ccc1O	?	16	-23	·	6	0.8	1.6	2
CSc1nc2ccc(NS(=O)(=O)c3ccc([N+](=O)[O-])cc3)cc2s1	0.9	-1	4	-0.1	0	0.0	1.4	3
CC(=O)NC(Cc1c[nH]c2ccccc12)C(=O)NCc1ccco1 (stereo not given)	-4.9	-8	10	0.3	-4	0.8	-1.0	8
COc1ccccc1C(=O)NC(C)c1ccc(-n2ccnc2)cc1 (stereo not given)	-1.9	4	0	1.2	-1	0.1	4.4	2
COCCNC(=O)Cc1c(C)c2cc3c(cc2oc1=O)OC(C)(C)CC3	0.2	9	-1	i	1	-0.3	1.5	-2
Cc1ccccc1C(=O)N1CCN(c2ccc(NC(=O)c3ccccc3[N+](=O)[O-])cc2)CC1	6.3	9	6	-1.2	2	1.1	3.0	1
CSc1nc(SCC(=O)NC(c2ccccc2)c2ccccc2)c2c3c(sc2n1)CN(C)CC3	-0.3	-15	64*	-8.0	30	0.6	-1.4	38
COc1cc(-c2noc(C)c2C(=O)NCc2ccc3c(c2)OCO3)cc(OC)c1OC	·	·	·	5.0	-8	-0.3	-1.3	-1
Brc1ccc(COc2cccc3cccnc23)cc1	1.0	-14	2	-0.3	-12	-5.0	-1.5	4
COc1ccccc1C(=O)NCCn1cc(SCC(=O)Nc2cc(C)on2)c2ccccc21	3.3	-3	6	0.9	·	-1.4	-1.4	-4
CCc1nnc(SCc2ccc(CSc3nnc(CC)n3N)cc2)n1N	-0.9	4	-1	-0.8	·	·	·	-5
CC(C)OC(=O)c1cccc2c1C(=O)c1ccccc1-2	-0.1	3	6	1.8	-2	?	-0.9	16
CCOC(=O)CNC(=O)/C=C/c1c(Cl)cccc1Cl	-1.0	2	-3	2.4	-1	-0.3	-1.9	-5
O=C(CCNC(=O)c1ccccc1Cl)Nc1ccc(Br)c(C(F)(F)F)c1	0.8	-22	4	24*	-3	0.7	-2.1	8
Cc1cc2oc(=O)cc(CN3CCN(S(=O)(=O)c4cccs4)CC3)c2cc1C(C)C	0.0	5	44	3.5	33	0.3	-4.0	22
CCOC(=O)c1[nH]c(C)c(C(=O)N(CC)CC)c1C	2.5	-5	3	-1.4	-6	-0.2	4.6	5
Cc1[nH]n(-c2ccccc2)c(=O)c1/C=N/c1ccccn1	1.8	3	-8	·	-7	0.5	6.3	-15
Cn1c(=O)c2c(nc(CN3CCc4ccccc4C3)n2CCCO)n(C)c1=O	-0.1	-16	8	3.0	-4	0.5	3.0	-5
CCOc1ccccc1NC(=O)CSc1nc(=O)n(CCCN2CCOCC2)c2c1CCC2	?	2	-6	6.7	-2	-0.4	-0.7	5
CCOC(CNC(=O)CN1C(=O)COc2ccc(S(=O)(=O)N3CCCC3)cc21)OCC	1.7	1	-9	1.2	·	·	·	0
CCc1nn(CC(=O)N2CCN(Cc3ccc4c(c3)OCO4)CC2)c(=O)c2cc3occc3n12	-2.4	1	11	0.8	·	·	·	-5
COc1cc(CN2CCC(C(=O)N3CCCC(C)C3)CC2)cc(Br)c1O (stereo not given)	2.1	?	-12	0.5	-2	0.8	-3.8	-5
COc1cc(C2C(C#N)=C(N)N(c3cccnc3)C3=C2C(=O)CC(C)(C)C3)ccc1O (stereo not given)	1.0	-12	-3	-2.2	-1	0.7	-5.1	-7
COc1ccc(C(=O)NCc2cn3ccccc3n2)cc1	1.7	17	-8	0.5	-4	0.4	1.5	-11
CC(=O)NC1C(OC(=O)/C=C/c2ccccc2)OC(COC(C)=O)C(OC(C)=O)C1OC(C)=O (stereo not given)	-1.8	-3	-14	0.1	·	-0.8	-5.3	-1
Nc1cccc2c1C(=O)N(C(=O)/C=C/c1cccc(F)c1)C2=O	27*	-2	-32	-144	-2	-0.1	-8.7	-19
O=C(CC1C(=O)NCCN1Cc1ccc(-c2ccccc2)cc1)NC1CCC1 (stereo not given)	2.2	-41	-6	3.3	116*	0.1	-6.0	-8
CCOc1ccccc1OCCOc1cccc(C(F)(F)F)c1	-2.2	3	5	0.2	5	-0.6	-4.1	-10
COc1ccc(S(=O)CC(=O)Nc2ccccc2Cl)cc1 (stereo not given)	-1.0	-10	-7	1.8	-8	0.8	4.0	23
CCOc1ccccc1NC(=O)c1cnc(NS(=O)(=O)c2ccccc2)nc1	2.3	-1	-19	1.9	5	0.3	0.1	11
Cc1ccccc1-c1nc(C(=O)NCC2CCCO2)cc2c1[nH]c1ccccc12 (stereo not given)	2.7	-1	43	-19	35	-0.4	-1.1	-5
N#Cc1c(-c2ccc(Cl)cc2Cl)nc2n(c1=O)CCS2	-0.2	-6	-9	-3.5	6	-0.6	5.6	26
CCOC(=O)CC1=CC(C)(CC(=O)OCC)C(C#N)(C#N)C(N)=C1C#N (stereo not given)	0.2	?	8	7.0	-1	0.3	0.7	1
NC(=O)[C@H]1CC2(CC(c3cccc(NC(=O)c4ccccc4)c3)=NO2)CN1C(=O)[C@H]1CCC(=O)N1 (stereo not given in full)	0.5	30	-24	2.8	3	-0.6	-1.7	5
Cc1nn(-c2ccc(F)cc2)c(Cl)c1/C=C(\CC(=O)O)c1nc2ccccc2s1	5.5	51	-12	4.8	-11	-1.7	5.0	6
COc1ccccc1NC(=O)CSc1nnc(CNC(=O)c2cccs2)o1	0.6	-3	0	0.6	-6	0.3	0.9	4
CCOC(=O)C1=C(Cn2ccc(C(F)(F)F)n2)NC(=O)NC1c1ccc2c(c1)OCO2 (stereo not given)	2.5	17	·	5.0	4	0.1	-0.2	-3
Cc1cc(C)c2oc(C(=O)N3CCN(C)CC3)cc(=O)c2c1	6.6	-7	2	-4.4	1	0.6	-4.6	-14
CC[n+]1cc(-c2ccccc2)nc(N2CCOCC2)n1	4.8	-4	-5	10	-2	0.5	0.7	9
CC(C)(C)C(=O)Cn1c(=N)n(Cc2ccccc2)c2ccccc21	-1.5	1	30	1.6	4	0.8	-2.4	-2
CSc1nc(C)c(CCOC(=O)c2cccc(C)c2)c(=O)[nH]1	6.7	-5	8	1.6	-3	0.1	3.2	-4
O=C(O)c1cccc(NC(=O)c2ccc(CN3C(=O)c4ccccc4C3=O)cc2)c1	5.3	-3	-13	0.6	-7	-2.3	-0.8	-5
CCC(=O)c1ccc(OCC(=O)N2CCN(c3ccccn3)CC2)cc1	-0.6	10	-6	-3.1	-4	1.0	3.3	-2
Cc1ccccc1-n1c(SCc2c(C)noc2C)nnc1-c1ccncc1	?	-3	3	-4.6	8	1.4	-2.3	2
Cc1ccc(NC(=O)C(Cc2ccccc2)n2cccc2)cc1 (stereo not given)	2.3	-2	-3	2.0	5	0.0	-3.0	-9

Other results.
compound	RanGTP-Impb inh	Calb FLC	T cruzi repl	UCH37 DUB inh	Beta apoptosis	A1 inh	LANA-H2A inh	Beta2AR agonist
COc1ccc(N(CC(=O)NN=C2CCN(C)CC2)S(=O)(=O)c2ccccc2)c(OC)c1	-1.7	-4	-2	1.9	-3	-1.0	0.0	-2
Cc1cc(/C=N/n2cnnc2)c(C)n1-c1cc(Cl)ccc1Cl	0.9	25	44	·	1	0.0	12	-1
COc1ccc(CN2C(=O)/C(=C/c3ccncc3)SC2=S)cc1	2.8	0	3	5.5	-33	-0.6	2.0	9
O=C1C=C(c2cccc3c2oc2ccccc23)C[C@@H](c2ccc(F)cc2)C1	·	·	·	3.3	5	0.5	5.2	11
CSc1ccc(CN(C)C(=O)c2cccc(S(=O)(=O)NCc3ccccc3)c2)cc1	4.8	-2	23	5.2	-3	-0.6	-2.2	-1
CC12CS(=O)(=O)CC1SC(=S)N2c1ccccn1 (stereo not given)	-3.0	5	-9	3.3	0	-0.6	-6.3	0
O=C(Cn1ncc(Cl)c(Cl)c1=O)c1ccc(Cl)cc1	-4.3	-3	75*	2.3	-35	1.0	1.1	15
O=C(Nc1ccccc1)c1cc([N+](=O)[O-])ccc1Cl	2.6	·	2	0.6	-4	0.3	-1.2	-9
COc1ccc(-c2nc3ccccc3c(=O)n2-c2c(C)n(C)n(-c3ccccc3)c2=O)cc1	2.3	-5	7	3.4	-3	-0.8	-2.2	4
C=CCC(c1ccccc1)N(C(C)=O)c1ccco1 (stereo not given)	2.2	-4	-6	1.9	5	1.5	1.0	-4
O=C(CSc1nccn(-c2ccc(F)c(Cl)c2)c1=O)NC1CCCC1	0.3	-2	-4	-19	-24	-0.4	·	-5
Cc1cc(NC(=O)C(C)Sc2nc(-c3ccccc3)cc(=O)[nH]2)no1 (stereo not given)	2.9	-7	-12	1.4	-1	0.4	-3.6	-3
CNC(=O)CSc1nnc(-c2cccnc2)n1-c1ccc(C)cc1	?	-19	2	0.9	·	0.5	-0.5	1

Look-ups from the list.
For A1 inh, O=C(CSc1nccn(-c2ccc(F)c(Cl)c2)c1=O)NC1CCCC1 shows -0.4
For Calb FLC, CNC(=O)CSc1nnc(-c2cccnc2)n1-c1ccc(C)cc1 shows -19
